High-throughput results deposited in PubChem by several laboratories.
UCH37 DUB inh – human UCH37 deubiquitinating enzyme inhibition | AID 588478 | purified proteasome/UCH37, Ub-AMC cleavage fluorescence | inhibition, % (concentration not given with the values) | actives 0.33% (n = 330,000);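 active = mean of two replicates above 20%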;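 also: 0% = compound-free wells with enzyme and 100% = wells lacking proteasome; stock transfer was 100 nL into about 20 µL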
Target sequence (Q9Y5K5 whole entry, looked up): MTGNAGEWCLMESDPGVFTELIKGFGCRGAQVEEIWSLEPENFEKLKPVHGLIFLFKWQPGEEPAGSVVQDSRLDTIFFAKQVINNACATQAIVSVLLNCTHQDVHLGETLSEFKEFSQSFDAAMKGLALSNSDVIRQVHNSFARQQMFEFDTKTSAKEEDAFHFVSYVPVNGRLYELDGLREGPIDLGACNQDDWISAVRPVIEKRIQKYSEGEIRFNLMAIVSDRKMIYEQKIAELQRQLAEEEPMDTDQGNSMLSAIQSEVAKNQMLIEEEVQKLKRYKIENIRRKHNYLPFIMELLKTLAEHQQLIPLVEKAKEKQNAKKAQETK
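Assay system: Proteasome-bound UCH37. Buffer or medium: pH 7.4 Tris-HCl (50 mM) with ovalbumin, ATP-MgCl2, DTT. Incubation: 30 min preincubation with enzyme, 25 min cleavage at room temperature. Measured by: fluorescence, ex 355 nm, em 460 nm. Read-out basis: percent inhibition. Control set: wells without proteasome as full block, compound-free enzyme plus substrate as uninhibited.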
RanGTP-Imp inh – inhibitors of RanGTP-importin-beta interaction, primary screen, biochemical, FRET, CFP-Ran, YFP-importin-beta, homogeneous; cell-free CFP-Ran/YFP-importin-beta FRET ratio; inhibition, % (no concentration beside the values); actives 1.1% (n = 300,000);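 active = most replicates above 15%; inconclusive = exactly half above 15%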;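 also: 0% = DMSO wells and 100% = Ran loaded with GDP instead of GTP; wells of about 40 µL received 100 nL stock; the first replicate is given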
Beta cell apopt – beta cell apoptosis inhibition; INS-1E cytokine-induced death, ATP luminescence, 48 h; percent of positive-control rescue, neutral wells zero; protection from apoptosis, % (concentration not given with the values); actives 0.8% (n = 300,000); AID 435005;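 active = all replicates at 75% or more, or half of them and the mean; inconclusive = half reach 75% but not the mean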;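 also: 0% = cytokine-treated negative control wells and 100% = positive control rescue; higher means more ATP so stronger rescue from cytokine killing; wells of about 40 µL received 100 nL stock; the first replicate is given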
T cruzi inh – T. cruzi replication inhibition; AID 1885; inhibition, % (no concentration beside the values); actives 1.4% (n = 300,000); T. cruzi beta-gal in NIH3T3, luminescence, 90 h;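 active = mean inhibition across valid replicates above about 55%, limit read from the data; inconclusive = mean below that limit but half or more replicates reach it; inactive = mean below it, under half of replicates reach it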;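 also: signal also drops with host cell toxicity which is not excluded here; 0% = plate median of DMSO wells and 100% = zero luminescence signal; higher percent means less beta-gal luminescence so fewer parasites; stock transfer was 50 nL into about 50 µL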
Beta2AR agonist – agonists of human beta-2 adrenergic receptor inducing internalization | Am2.2-beta2AR cells, FAP receptor internalization, flow cytometry; reference of the scale not given here | actives 0.43% (n = 340,000) | response, % (test concentration not listed);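 active = response above a set limit, near 3 SD of response in nonfluorescent compounds, cut at about 42% in these data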;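 also: stock transfer was 100 nL into about 11 µL; a reference agonist was the positive control; negative values mostly stem from fluorescent compounds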
Target sequence (P07550 whole entry, looked up): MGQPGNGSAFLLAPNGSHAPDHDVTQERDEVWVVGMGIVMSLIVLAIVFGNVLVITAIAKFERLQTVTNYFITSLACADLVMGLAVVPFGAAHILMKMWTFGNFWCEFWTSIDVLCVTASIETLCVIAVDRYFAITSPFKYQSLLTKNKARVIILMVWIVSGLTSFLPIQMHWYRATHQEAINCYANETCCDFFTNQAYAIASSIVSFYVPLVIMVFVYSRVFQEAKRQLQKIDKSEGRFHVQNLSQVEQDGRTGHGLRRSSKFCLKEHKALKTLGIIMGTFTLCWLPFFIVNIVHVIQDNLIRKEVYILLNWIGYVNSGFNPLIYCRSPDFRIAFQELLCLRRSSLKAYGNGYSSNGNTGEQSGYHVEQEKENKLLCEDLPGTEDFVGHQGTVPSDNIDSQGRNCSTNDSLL
Bfl-1 A1 inh – inhibitors of the anti-apoptotic protein A1, read as caspase activation; caspase activation, % (concentration not given with the values); actives 0.066% (n = 330,000); MEF A1-2A-BIM cells, Caspase-Glo 3/7 luminescence, 3 h; percent of clofoctol response, vehicle zero; AID 2462;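 active = over half of replicate activation scores above 10%, or exactly half above 10 with the replicate mean above 10; inconclusive = replicate mean below 10 yet half the replicates above 10; inactive = over half of replicates below 10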;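 also: wells of about 30 µL received 50 nL stock; many hits fall short of the cut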
Calb FLC – C. albicans growth modulation with fluconazole; C. albicans CaCi-2 (fluconazole-resistant clinical isolate) + fluconazole, Alamar Blue growth, 48 h; growth inhibition, % (test concentration not listed); actives 0.57% (n = 300,000);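 active = most replicates above 75%; inconclusive = exactly half above 75%; inactive = most below 75%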;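 also: all wells also contain fluconazole at 8 µg/ml as a sub-toxic cotreatment; 0% = median of DMSO wells and 100% = median of geldanamycin control wells; wells of about 8 µL received 7.5 nL stock; the first replicate is given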
LANA-H2B inh – blocks KSHV LANA binding to histone H2A/H2B | cell-free LANA-H2A/H2B peptide, fluorescence polarization | inhibition, % (concentration not given with the values) | Q9QR71 | actives 0.6% (n = 320,000); in the data active = inhibition mostly above about 10%, no sharp cut-off; inactive = mostly below about 6.7%;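 also: stock transfer was 7.5 nL into about 10 µL; 0% = median of vehicle wells and 100% = median of positive control wells; one replicate is shown; the record names a cut of 25% in any replicate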
Numbers without * were called inactive; ? = inconclusive; / = no result given. The order is random; about 4.3% have a hit in one of these screens.

nr	mol	Beta cell apopt	T cruzi inh	Bfl-1 A1 inh	Beta2AR agonist	UCH37 DUB inh	Calb FLC	RanGTP-Imp inh	LANA-H2B inh
1	CN1CCN(c2ccc(NC(=O)COc3ccc4ccccc4c3)cc2)CC1	6	14	-0.4	18	6.1	-9	?	0.9
2	O=C(NCc1cccnc1)c1ccc(NS(=O)(=O)c2cccc([N+](=O)[O-])c2)cc1	0	/	0.4	2	4.5	/	/	-4.3
3	O=C(NCCN1CCOCC1)C(=O)NCc1ccco1	-1	-3	-0.5	6	0.6	16	-1.1	-4.6
4	COc1ccc(C(=O)CSc2nnc(Cn3cnc4ccccc43)o2)cc1	15	1	-1.0	2	2.2	?	7.3	1.2
5	Cc1ccc(S(=O)(=O)N2CCC(C(=O)N3CCN(c4ccccn4)CC3)CC2)cc1	-11	-11	2.2	0	-1.1	-2	8.8	-4.0
6	CCn1c(=S)sc2c(=O)n(-c3ccccc3)c(SC)nc21	9	14	1.0	4	3.9	?	1.5	-0.7
7	CCOCCCNC(=O)CN1C(=O)CSc2ccc(S(=O)(=O)N3CCOCC3)cc21	1	-5	0.8	3	3.7	16	-1.9	-1.4
8	CCc1nnc(N2C(=O)c3ccc(Oc4ccc([N+](=O)[O-])cc4)cc3C2=O)s1	0	3	0.1	-1	0.0	36	-3.0	-0.3
9	CCCNC(=O)c1ccc(N2CCC3(CC2)CC(c2ccccc2)=NO3)c(NC(=O)c2ccco2)c1	19	41	-0.3	1	-0.1	33	-0.3	6.5
10	COc1ccc(CNC(=O)c2cccc(N3CCCC3=O)c2)cc1	2	-4	0.6	-6	4.4	1	-0.9	7.4
11	Cc1ccc(NC(=O)Nc2ccc3c(c2)CCC3)cc1C	-8	0	0.2	1	1.8	-8	-1.4	0.0
12	CCC(Oc1ccc(Cl)cc1)C(=O)N1CC(=O)Nc2ccccc21 (stereo unspecified)	-1	2	1.5	-8	-0.1	23	3.2	-12
13	CC1(C)OC2OC(COC(=O)c3ccccc3)C3OC(C)(C)OC3C2O1 (stereo unspecified)	-8	-7	0.9	2	2.6	-26	1.3	-1.8
14	Cc1ccc(C)c(OCc2nnc(SCC(=O)NCc3ccc4c(c3)OCO4)o2)c1	-4	4	-0.2	-1	5.2	-24	1.9	-0.8
15	CC(=O)Nc1cccc(/C(C)=N/NC(=O)c2ccc(NS(=O)(=O)c3cccs3)cc2)c1	-4	-4	0.3	-3	/	-1	4.5	3.0
16	CCSc1nc2c(c(=O)n1CC)SC(C)C2 (stereo unspecified)	/	-6	0.1	0	6.4	-4	1.0	-0.2
17	CN(CC(=O)Nc1ccc(F)cc1)C(=O)CN1C(=O)NC2(CCCCC2)C1=O	3	/	0.4	-2	0.8	/	/	-5.6
18	CC1CN(CCOc2ccccc2C(C)C)CC(C)O1 (stereo unspecified)	/	1	-0.3	7	1.0	-12	1.3	5.3
19	S=c1[nH]c2ccc(Cl)cc2[nH]1	-3	-4	1.1	4	3.2	-1	-2.9	-2.1
20	CCC(C)NC(=O)c1c(F)c(F)c(F)c(F)c1F (stereo unspecified)	-4	-3	0.4	-4	3.1	6	-3.5	3.4
21	Cc1c(NC(=O)COC(=O)C2(c3ccccc3F)CCCC2)c(=O)n(-c2ccccc2)n1C	3	-4	0.9	-3	3.9	12	-4.5	-0.5
22	O=C(Nc1ccc2c(c1)OCO2)C1CCN(S(=O)(=O)c2cccc3cccnc23)CC1	5	7	-0.1	-5	0.1	10	1.1	-7.8
23	NC(=O)NC(Cc1ccccc1)C(=O)NCC1(N2CCCCC2)CCCCC1 (stereo unspecified)	-4	9	-0.8	4	0.9	0	4.8	2.0
24	O=C(NCc1ccccc1C(F)(F)F)C12CN(Cc3ccccc3)CC1C(c1ccc([N+](=O)[O-])cc1)=NO2 (stereo unspecified)	13	32	1.9	7	1.3	-3	-0.4	2.2
25	Cc1ccc(C)c(S(=O)(=O)N2CCN(C(=O)Cn3cnc4c3c(=O)n(C)c(=O)n4C)CC2)c1	-10	-9	0.5	3	1.1	-1	1.5	-0.9
26	Cc1nn(-c2ccccc2C(F)(F)F)c(=O)c2noc(C)c12	-8	/	0.0	-4	5.4	4	6.6	3.7
27	Cc1ccc(NC(=O)CSCC(=O)Nc2cccc3ncccc23)cc1	-4	33	-0.5	4	2.2	15	0.1	-0.9
28	Cc1nn(C)cc1S(=O)(=O)NCc1ccccc1Cl	-1	-16	0.6	0	-1.4	/	/	-2.8
29	CC(C)[N+](C)(C)CC#CC(O)(c1ccccc1)c1ccccc1	-1	-8	0.2	11	3.2	-17	-2.0	7.5
30	O=C(NCCCn1ccnc1)NC(C(F)(F)F)C(F)(F)F	0	-3	1.5	-1	2.4	-21	0.0	2.3

(next part)
nr	mol	Beta cell apopt	T cruzi inh	Bfl-1 A1 inh	Beta2AR agonist	UCH37 DUB inh	Calb FLC	RanGTP-Imp inh	LANA-H2B inh
31	Cc1ccc(N2CC(C(N)=O)CC2=O)cc1C (stereo unspecified)	-1	2	1.3	3	2.9	-9	-2.8	1.9
32	CCOc1ccc(NC(=O)NCCCn2c(C)nc3cc(C)c(C)cc32)cc1	8	8	0.6	1	0.6	-9	3.2	1.8
33	CCNC(=O)NC(=O)CSc1ccccc1F	-5	-3	0.1	18	0.5	0	-1.3	2.0
34	CCOc1ccc2[nH]c(=O)c(CN(CCO)Cc3nnnn3CCc3ccccc3)cc2c1	-3	8	1.5	-15	-52	4	-9.9	-0.5
35	CC(=O)N1CCc2c(sc(NC(=O)Cc3ccc(C)cc3C)c2C#N)C1	5	22	-0.7	4	4.8	14	3.1	0.1
36	Cc1ccc(CN(C(=O)c2cccs2)C2CCS(=O)(=O)C2)cc1 (stereo unspecified)	5	3	-0.1	6	3.9	1	-1.8	0.0
37	CCC(C)NC(=O)CSc1nnc(-c2cc(OC)c(OC)c(OC)c2)c(-c2cc(OC)c(OC)c(OC)c2)n1 (stereo unspecified)	5	-10	0.9	-2	7.6	5	3.8	4.5
38	Fc1ccc(N2CCN(C(=S)NCc3ccco3)CC2)cc1	2	-60	-0.7	-7	2.8	-9	-2.2	-7.6
39	CN(C)S(=O)(=O)N1CCc2ccc(NC(=O)C3CCCO3)cc2C1 (stereo unspecified)	/	-1	/	-8	1.7	4	-1.0	/
40	Cc1ccccc1Cn1nc(C)c(NC(=O)c2cc(-c3ccco3)on2)c1C	-5	-4	-0.2	5	1.9	-6	?	-2.8
41	CCOC(=O)c1c(C)[nH]c(C(=O)Cn2nnc(-c3ccc(Cl)cc3)n2)c1C	6	25	-0.3	-6	-0.2	-1	0.6	-4.2
42	c1ccc(CN2CCC(=NNc3nc4ccccc4[nH]3)CC2)cc1	9	1	0.1	11	0.5	?	3.7	-1.7
43	CN(C)N1C(N)=C(C#N)C(c2ccccc2)C2=C1CC(C)(C)CC2=O (stereo unspecified)	2	-4	2.0	-4	3.2	-3	0.5	0.1
44	CC(C)(C)c1ccc(S(=O)(=O)NCCc2ccncc2)cc1	9	-2	0.9	9	0.5	6	6.2	-0.1
45	COCCn1ccc2c(OCC(=O)Nc3cccc(NC(C)=O)c3)cccc2c1=O	-3	-5	-0.7	11	-2.4	-3	-1.1	/
46	N#C/C(=C\c1ccc(-c2cccc([N+](=O)[O-])c2)o1)C(=O)NCCN1CCOCC1	1	-1	-0.2	20	2.6	-6	3.0	3.0
47	CCc1ccc(N(CC(=O)NC2CC2)S(=O)(=O)c2ccc(C)cc2)cc1	-1	15	-0.6	-8	1.4	-5	-5.2	3.7
48	Cc1ccc(NC(=O)CN2C(=O)N/C(=C/c3ccc(N4CCOCC4)cc3)C2=O)cc1	1	0	-0.6	-5	-0.7	-8	0.3	-3.0
49	COC(=O)COc1ccc(S(=O)(=O)Nc2ccc(C(N)=O)cc2)cc1C	-4	2	-1.1	2	2.6	8	0.5	1.2
50	O=S(=O)(c1cnc(Cl)c(Br)c1)N1CCc2ccccc21	-7	-15	-0.2	56*	2.2	12	3.2	-2.8
51	COc1cccc(CNC(=O)CSCc2cnn(-c3ccccc3)c2-n2cccc2)c1	/	-4	-1.0	-10	-1.4	44	3.1	-1.5
52	Cn1cc(SCC(=O)NC2CCCCC2)c2ccccc21	/	4	2.3	4	4.6	0	-3.1	4.1
53	Cc1sc(NC(=S)NC(=O)c2cccs2)nc1-c1ccc(CC(C)C)cc1	8	-3	-1.5	1	0.1	1	-1.1	-4.4
54	CN(c1ccccc1)S(=O)(=O)c1ccc(-c2ccccc2)cc1	5	-3	0.2	4	0.1	9	-1.6	-2.8
55	Cc1nc(SCc2cccc(F)c2)c2oc3ccccc3c2n1	1	6	-0.4	5	2.8	0	0.3	-4.3
56	Cc1ccc(S(=O)(=O)N(C)CC(=O)N/N=C/c2ccc(C)o2)cc1	-5	-9	0.8	0	/	-6	-7.5	-1.5
57	CC(=O)Nc1ccc(S(=O)(=O)NCCOc2ccc(Cl)cc2C)cc1	1	-37	-0.4	-3	0.4	-25	-3.8	-1.6
58	CC(C)(C)NC(=O)CC1C[C@H](C(=O)N2CCCCC2)[C@@]2(CCc3ccccc3)c3[nH]c4ccccc4c3CCN2C1=O (stereo partly specified)	-7	/	0.5	-7	-0.7	/	/	32*
59	CC(C)N1C(=O)c2ccccc2C1C(=O)NCCc1ccccc1 (stereo unspecified)	-4	-8	-0.3	7	2.2	-6	-0.8	-3.0
60	Oc1ccc2ccccc2c1CN1CCN(C/C=C/c2ccccc2)CC1	-2	17	0.2	-3	-4.2	9	1.5	4.4
61	COc1cc(CN(C)CC(=O)c2[nH]c(C)c(C(C)=O)c2C)ccc1OC(F)F	0	/	-1.1	-9	7.5	9	-0.8	-9.1
62	COc1ccc(N(C2=NCCCS2)S(=O)(=O)c2ccc(C(C)(C)C)cc2)cc1	-3	19	-0.5	-1	1.8	-3	-2.3	-1.9
63	COc1ccc2c(c1)C1NC(=S)NC(C)(O2)C1C(=O)Nc1ccc(Cl)cc1 (stereo unspecified)	3	23	-0.1	2	3.1	24	0.7	2.7

Profiles as entered above:
`CC(=O)N1CCc2c(sc(NC(=O)Cc3ccc(C)cc3C)c2C#N)C1` is entered as Beta cell apopt = 5; T cruzi inh = 22; Bfl-1 A1 inh = -0.7; Beta2AR agonist = 4; UCH37 DUB inh = 4.8; Calb FLC = 14; RanGTP-Imp inh = 3.1; LANA-H2B inh = 0.1
`CCOC(=O)c1c(C)[nH]c(C(=O)Cn2nnc(-c3ccc(Cl)cc3)n2)c1C` is entered as Beta cell apopt = 6; T cruzi inh = 25; Bfl-1 A1 inh = -0.3; Beta2AR agonist = -6; UCH37 DUB inh = -0.2; Calb FLC = -1; RanGTP-Imp inh = 0.6; LANA-H2B inh = -4.2
`c1ccc(CN2CCC(=NNc3nc4ccccc4[nH]3)CC2)cc1` is entered as Beta cell apopt = 9; T cruzi inh = 1; Bfl-1 A1 inh = 0.1; Beta2AR agonist = 11; UCH37 DUB inh = 0.5; Calb FLC = ?; RanGTP-Imp inh = 3.7; LANA-H2B inh = -1.7
